# Screening results: PubChem BioAssay, National Center for Advancing Translational Sciences (NCATS)
# Vaccinia mCherry: inhibitors of vaccinia virus infection (mCherry reporter signal). Vaccinia virus mCherry reporter infection, fluorescence; about a quarter of the inactives have no number. Potency, µM (doses to about 36.5 µM), for inactives: at the highest dose activity change, negative = inhibition, most hits filed as inhibitors. AID 720579. 0.63% of 310,000 active; active = well fitted inhibition curve with a large enough effect; inconclusive = small, poorly fitted or top-dose-only effect; inactive = no such curve, though single readings can be large or run the other way; tested in A549 cells; also: nearly all actives have a fitted effect of over 35% in size; inactives centre near -10
# Vaccinia Venus: vaccinia inhibition (Venus reporter). 0.46% of 330,000 active. Vaccinia virus Venus reporter expression, fluorescence. Potency, µM (top dose mostly 36.5 µM), without a hit: at the highest dose activity change, negative = inhibition, hits mostly inhibitors; active means well fitted inhibition curve with a large enough effect; inconclusive means small, poorly fitted or top-dose-only effect; inactive means no such curve, though single readings can be large or run the other way; tested in A549 cells; also: nearly all actives have a fitted effect of over 30% in size; inactives centre near -10
# The depositor's hits bear a star; i = inactive; ? = inconclusive; nt = not tested or not shown; & = joins results of further samples; [ ] = dose if it differs, or a comment. % is scaled to controls: 0 for no effect and ±100 for the full control effect; potency is read from the fitted curve at half-maximal effect.
# Every second line gives: Vaccinia mCherry, Vaccinia Venus
> Cc1ccc(CNC(=O)C2C3C=CC4(CN(Cc5cccnc5)C(=O)C24)O3)cc1 (configuration not stated)
  -6%, ?
> O=C(CCSCc1ccc(Cl)cc1)NCCC1=CCCCC1
  i, -15%
> Cc1cc(NC(=O)/C=C/c2ccco2)ccc1NC(=O)c1ccccc1
  -14%, -2%
> Cc1ccc(NC(=O)CC2SC(=O)N(c3ccccc3)C2=O)cc1 (configuration not stated)
  i, -8%
> COc1ccc2cc1Oc1ccc(cc1)C[C@H]1c3c(cc(OC)c4c3Oc3c(ccc5c3[C@H](C2)N(C)CC5)O4)CCN1C
  ?, ?
> CCN(CC)C(=O)c1ccc(NC(=O)CSc2nnnn2-c2cc(OC)ccc2OC)cc1
  -19%, -23%
> Cc1csc2nc3cc(C(N)=O)ccc3c(=O)n12
  i, -17%
> COC(=O)[C@@H]1C(c2ccccc2)(c2ccccc2)[C@@]1(C)C(=O)OC
  -20%, -16%
> Cc1ccc(NC(=O)COC(=O)C2CCC(=O)N2)c(S(=O)(=O)N2CCOCC2)c1 (configuration not stated)
  -21%, -12%
> CNC(=S)NNC(=O)Cc1ccc(OC)c(OC)c1
  nt, 0%
> CN(C)Cc1ccccc1-c1cc(-n2ccnc2)ncn1
  -2%, 0%
> CCC(CC)C(=O)Nc1c(C)n(C)n(-c2ccccc2)c1=O
  -14%, -11%
> Cc1cn2nc(N)c3ccccc3c2n1
  i, -17%
> CCc1c(C)sc2c1CCN(C(=O)Nc1cc(C)cc(C)c1)C2c1ccccc1 (configuration not stated)
  -7%, 10%
> C[C@H]1CN([C@@H](C)CO)C(=O)c2cccc(NC(=O)c3ccc(-c4nccs4)cc3)c2O[C@@H]1CN(C)C(=O)Nc1cccc2ccccc12
  ?, -11%
> O=C(c1cc(F)ccc1F)C1CCCN(C(=O)CSc2ccccn2)C1 (configuration not stated)
  -3%, -7%
> CCOC1=C2[C@@H](CN(S(=O)(=O)c3ccc(C)cc3)[C@H]2c2cccc3ccccc23)[C@H]2C(=O)N(C)C(=O)[C@H]2C1
  4%, -6%
> CCCCOC(=O)Nc1ccc(C)c(Cl)c1
  nt, -15%
> CCC(C)(C)C1CCC(=NNC(=O)c2ccc(Br)o2)CC1 (configuration not stated)
  -8%, -7%
> O=C(COC(=O)c1ccc(Cl)c(S(=O)(=O)N2CCCC2)c1)NCc1cccs1
  -11%, -20%

# Next part; the last 3 above are carried over.
# Every second line gives: Vaccinia mCherry, Vaccinia Venus
> CCCCOC(=O)Nc1ccc(C)c(Cl)c1
  nt, -15%
> CCC(C)(C)C1CCC(=NNC(=O)c2ccc(Br)o2)CC1 (configuration not stated)
  -8%, -7%
> O=C(COC(=O)c1ccc(Cl)c(S(=O)(=O)N2CCCC2)c1)NCc1cccs1
  -11%, -20%
> CCCCn1c(N)c(N(CCOC)C(=O)c2ccc(N3CCCC3)c([N+](=O)[O-])c2)c(=O)[nH]c1=O
  -19%, -7%
> Cc1ccc(C)c(NC(=O)CNC(=O)N2CC(=O)Nc3ccccc32)c1
  i, -11%
> CCC(C(=O)Nc1ccc(C)c(Cl)c1)n1c(=O)c(-c2ccccc2NC(C)=O)nc2ccccc21 (configuration not stated)
  -22%, -14%
> CCOc1ccc(NC(=S)c2ccncc2)cc1
  ?, -24%
> Cc1ccc(S(=O)(=O)N2CCC[C@H]2C(=O)Nc2ccccc2Cl)cc1
  -13%, 5%
> O=C(NCCNC(=O)c1ccccn1)c1ccc(F)cc1
  -16%, 0%
> COC(=O)[C@@]1(Cc2ccccc2)[C@H]2C(=O)N(C)C(=O)[C@H]2[C@H]2CN=C(SCC3CC3)N21
  i, -15%
> COC(=O)c1ccccc1CC1Cc2cc3c(cc2C1=O)CCC3 (configuration not stated)
  -7%, -21%
> CSc1ncccc1C(=O)Nc1nc2c(C)cccc2s1
  -13%, -19%
> Cc1cccc(C(=O)Nc2ccccc2SCC(=O)Nc2ccc(C)c(Cl)c2)c1
  i, -3%
> CCc1ccc(NC(=O)COC(=O)c2ccc(Cl)c(S(=O)(=O)N3CCCCCC3)c2)cc1
  -2%, -21%
> CCSc1nc2c(c(=O)[nH]c(=O)n2C)n1CC(O)COc1ccc(Cl)cc1 (configuration not stated)
  i, -10%
> O=C(NCC(=O)N(Cc1cccs1)C(C(=O)NC1CCCCC1)c1ccco1)c1ccco1 (configuration not stated)
  -1%, -2%
> C=C(c1ccc2ccccc2n1)c1cccs1
  ?, ?
> COc1ccccc1CCN=C(N)NS(=O)(=O)c1ccccc1F
  -5%, -12%
> C=CCc1c(C)[nH]c2ccc(C)cc2c1=O
  i, -3%
> CCC1(c2ccc(Cl)cc2)NC(=O)N(CC(=O)NC2CCCC(C)C2C)C1=O (configuration not stated)
  -14%, -20%
> CCOC(=O)C1CCCN(C(=O)CSc2nccn2C)C1 (configuration not stated)
  nt, -14%
> Cn1c(SCC(=O)Nc2cccc(O)c2)nnc1-c1ccc(S(=O)(=O)N2CCOCC2)cc1
  -12%, -10%
> CN(C(=O)c1ccc(=O)[nH]c1)C1(C(=O)NC2CCCCC2)CCCCC1
  -21%, -10%
> COc1ccc(-c2nc3c(C)cc(Br)cn3c2Cc2ccc(C)cc2)cc1OC
  17%, 0%
> O=C(c1ccc(-c2ccccc2)cc1)N1CCN(c2ccc3c(c2)C2CC3CCN2C(=O)OCc2ccccc2)CC1 (configuration not stated)
  1%, -12%
> Cc1cc(C)c(OCCOCCn2c(-c3ccc(Cl)cc3)nc3ccccc3c2=O)c(C)c1
  -1%, -1%
> CCCCn1c(=O)c(CCC(=O)OCC(=O)Nc2cc(Cl)ccc2OC)nc2ccccc21
  -14%, -3%
> COc1cc(NS(=O)(=O)c2ccc(NC(=O)COc3ccc(Cl)cc3Cl)cc2)nc(OC)n1
  -6%, 0%
> COc1ccc(OCC(=O)Nc2ccccc2OC)cc1
  -12%, -16%
> CN(Cc1ccccc1)C(=O)C(=O)c1ccccc1
  ?, -22%
> C=CCNC(=O)CN1C(=O)NC(C)(c2ccc(OC)cc2)C1=O (configuration not stated)
  32%[activator], -3%
> CC(C)C(NS(=O)(=O)c1ccc2c(c1)oc(=O)n2C)C(=O)N1CCN(C2CCCCC2)CC1 (configuration not stated)
  6%, 5%
> CC(=O)OCCN1C(=O)c2cccnc2C1=O
  nt, -12%
> Cc1nn(C)c(C(=O)N/N=C/c2cccnc2)c1Cl
  -21%, ?
> CCN1C(C(=O)c2ccccc2)=C(Nc2ccccc2C)c2ccccc2S1(=O)=O
  -5%, -17%
> CCOn1c(=O)c(-c2ccc(OC)cc2)[n+]([O-])c2ccccc21
  nt, -3%
> COc1cccc(Nc2nc(NCCO)c3ccccc3n2)c1
  nt, ?
> O=C(CCc1ccccc1)Nc1nnc(-c2ccc3c(c2)CCCC3)o1
  0%, -15%
> CCOC(=O)C1=C(C)NC(C)=C(C(=O)OCC)C1C(=O)OCC(=O)N1CCOCC1
  -15%, -6%
> O=C(CCN1CCN(c2ccccc2)CC1)Nc1cccc(Br)c1
  -6%, -7%
> CC1CCCCC1NC(=O)c1cn(C)c2ccc(S(=O)(=O)N3CCOCC3)cc2c1=O (configuration not stated)
  -13%, -11%
> COC(=O)Nc1ccc(S(=O)(=O)NC2CCCCC2)cc1
  0%, -8%
> CC(C)c1ccc(NC(=O)C2C3C=CC4(O3)C2C(=O)N(CCN2CCOCC2)C4C(=O)NC2CCCCC2)cc1 (configuration not stated)
  2%, -7%
> O=C(O)/C=C/C(=O)Nc1cccc2c1-c1ccccc1C2=O
  -4%, -18%
> COc1cc(/C=C/C(=O)NC(C)C)ccc1OCc1ccccc1
  i, -8%
> NC(=O)c1sc2nc(-c3ccco3)ccc2c1N
  ?, -17%
> CN(C(=O)CSCC(=O)O)C1CCCCC1
  -15%, -8%
> Cc1ccn2cc(CCNS(=O)(=O)c3ccc4c(c3)CCCC4)nc2c1
  -17%, ?
> O=C(Nc1ccccc1)c1cccc(N2C(=O)CCC2=O)c1
  nt, -18%
> CCOC(=O)N1CCN(CCC(=O)Nc2ccc(OC)cc2OC)CC1
  -15%, -17%
> CCc1sc(C(=O)Nc2ncccc2C)cc1C
  20%, -10%
> Cc1cc(CNC(=O)CCN2Cc3cc(Cl)ccc3OC(C)C2)nn1C (configuration not stated)
  -5%, -2%
> Cc1ccc(CSc2nc3ccsc3c(=O)n2CCC(C)C)cc1
  -1%, -13%
> CCOC(=O)CN(C(=O)CN1CCC(n2nnc3cc(C)ccc32)CC1)c1ccccc1
  -19%, -16%
> CC(=O)NNc1ncnc2c1cnn2-c1ccc(C)cc1
  -6%, -5%
> Cc1ccc(-c2c(C(=O)NCc3ccccc3)oc(=O)c3ccccc23)cc1
  -10%&-12%, 2%&-6%
> CCN(CC)S(=O)(=O)c1ccc(C(=O)Oc2coc(CSc3nc(C)cc(C)n3)cc2=O)cc1
  -17%, -12%
> COc1ccc2cc(C3C(C#N)=C(N)OC(C)=C3C(C)=O)c(Cl)nc2c1 (configuration not stated)
  -4%, -3%
> O=C(COc1ccccc1F)Nc1ccc2nc(SCCOc3ccccc3)sc2c1
  i, -6%
> OCCC1CN(Cc2cnc(-c3ccc(Cl)cc3)nc2)CCN1C1CCCC1 (configuration not stated)
  i, -20%
> CCOc1ccc(CNC(=O)c2ccc3oc(=O)n(Cc4ccccc4)c3c2)cc1
  -15%, -11%
> COc1ccc2c(c1)-c1nc(N)sc1CC2
  ?, -18%
> Cc1cc(NC(=O)CCC(=O)N(c2cccc(F)c2)C(C(=O)NC2CCCC2)c2ccccc2)no1 (configuration not stated)
  -1%, -16%

# (listing goes on)
# Every second line gives: Vaccinia mCherry, Vaccinia Venus
> CCOC(=O)C1=C(c2ccccc2)N=c2sc(=Cc3cc(OC)c(OC)c(OC)c3)c(=O)n2C1c1cccs1 (configuration not stated)
  -7%, -10%
> CCn1cc(C(=O)N2CCN(c3ccccc3F)CC2)c(=O)c2cc(S(=O)(=O)N(C)C)ccc21
  -10%, -6%
> Cc1ccc(S(=O)(=O)n2nc(OC(=O)c3ccco3)cc2N)cc1
  ?, -9%
> Fc1ccc(CSc2nnc3ccc(-c4ccncc4)nn23)cc1
  -22%, -9%
> Cc1cccc(NC(=S)N2CCC(C(=O)c3ccc(F)cc3)CC2)c1C
  i, -18%
> O=C1c2cccnc2-c2ncccc21
  -19%, -15%
> CCOc1ncccc1C(=O)N(C)CC(=O)Nc1ccc(C)cc1
  -27%, -12%
> CC(C(=O)Nc1ccc2c(c1)OCO2)c1ccc([N+](=O)[O-])cc1 (configuration not stated)
  -10%, 6%
> CN(c1ccccc1)c1ccc(/C=N/NC(=O)CC#N)cc1
  -3%, -6%
> O=C(NCCOC(=O)c1ccc(Cl)cc1)c1cccnc1
  -7%, -16%
> Cc1ccc(S(=O)(=O)N(C)C[C@@H]2OCc3cn(nn3)CCCC(=O)N([C@H](C)CO)C[C@H]2C)cc1
  i, -2%
> CC(=O)C1CCC2C3CC(O)C4CC(O)CCC4(C)C3CCC12C (configuration not stated)
  -8%, 3%
> Cc1ccc(-c2nc(-c3ccc(Cl)cc3)sc2CC(=O)O)c(C)c1
  i, -13%
> COc1ccc2c(c1)CCc1cc(C(=O)N3CCN(c4ccc(N5CCOCC5)nn4)CC3)sc1-2
  4%, -19%
> Cc1ccc(S(=O)(=O)NCCNC(=O)C2CCCNC2=O)cc1 (configuration not stated)
  -14%, -4%
> COc1ccc(CCNC(=O)C/C(C)=N/NC(=O)C2CCCCC2)cc1OC
  i, -2%
> COc1ccc(C(=O)NCC(C)NC(=O)c2ccc(OC)c(OC)c2)cc1OC (configuration not stated)
  -13%, -11%
> O=[N+]([O-])c1cccc2ncccc12
  -6%, 7%
> COC(=O)C1=C(C)N(C(C)C)C(=O)C1(NC(=O)c1ccccc1OC)C(F)(F)F (configuration not stated)
  -25%, -10%
> COc1ccccc1C1CC(=O)Oc2cc(C)cc(C)c21 (configuration not stated)
  i, -13%

# Pulled by compound from the list above (2):
# Every second line gives: Vaccinia mCherry, Vaccinia Venus
> Cn1c(SCC(=O)Nc2cccc(O)c2)nnc1-c1ccc(S(=O)(=O)N2CCOCC2)cc1
  -12%, -10%
> COC(=O)Nc1ccc(S(=O)(=O)NC2CCCCC2)cc1
  0%, -8%

# (next part)
# Every second line gives: Vaccinia mCherry, Vaccinia Venus
> O=C(NCN1C(=O)C2C3C=CC(C3)C2C1=O)OC1CCCCC1 (configuration not stated)
  -16%[1.46 µM], -3%
> CS(=O)(=O)N(CC(=O)NCCSC1CCCCC1)c1ccc2c(c1)OCO2
  nt, ?
> Cc1ccccc1/C(N)=N/OC(=O)c1ccc(F)cc1
  -3%, 1%
> O=C(CCCc1ccccc1)NCCCc1ccccc1
  -13%, -4%
> O=C1c2ccccc2[C@@H]2C[C@@H](O)[C@H](Nc3cccc(Cl)n3)CCN12
  30%[activator], -1%
> O=C(CN1CCN(Cc2ccc(F)cc2)CC1)NCCc1ccccc1
  -16%, -15%
> O=C(COc1ncnc2ccccc12)c1ccc(Cl)cc1
  -13%, -10%
> C/C(=N\NC(=S)NCc1ccccc1)c1ccccc1F
  -24%, -7%
> O=c1c2ccccc2nc(/C=C/c2cccc([N+](=O)[O-])c2)n1CCCO
  -13%[1.46 µM], ?
> O=c1[nH]c2ccccc2n1C1CCN(C(c2nnnn2Cc2ccccc2)C2CC2)CC1 (configuration not stated)
  -4%, -8%
> Cc1cc(C)[n+](-c2ccc(C(C)C)cc2)c2[nH]c(=O)[nH]c(=O)c12
  -20%, -9%
> CC1Oc2ccccc2N(CC(=O)NC2CCCCC2)C1=O (configuration not stated)
  0%, -9%
> CN1C[C@@H]2[C@@H]3C(=O)N(C)C(=O)[C@@H]3[C@](C)(C1=O)N2C(=O)c1ccccc1
  -10%, -4%

# Rows are unselected; 0.86% or so of the library scored in one or more.
